Mtb growth = Mycobacterium tuberculosis H37Rv growth inhibition, cell based, confirmatory dose response (AID 1949). hit rate 1.6% among 100,000. most inactive calls were filed without a number and no value below 0 was filed. M. tuberculosis H37Rv growth inhibition. inhibition, % at 10 µg/mL, or IC50 in µg/mL where a hit was titrated;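 active = confirmed in a dose series; inconclusive = about 50% or more but not retested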;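 note: bacteria grown 7 days with compound before Alamar blue readout; 0% = untreated bacteria and 100% = reference antibiotic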
* hit, by the source's call; i = inactive; ? = inconclusive. Some of the compounds tested, so the mix of outcomes need not match the whole.

The opening 3 entries, to show the layout:
canonical_smiles | Mtb growth
O=C(COc1ccc(Cl)cc1)N(Cc1ccccc1)Cc1ccccc1 | 1%
CCOc1cc2oc(C)c(-c3ccccc3Cl)c(=O)c2cc1CC | i
O=C(CC(c1ccccc1)c1cc(Br)ccc1O)NC1CCCCC1 (centres undefined) | 5%

The whole of this part, repeating the preview:
canonical_smiles | Mtb growth
O=C(COc1ccc(Cl)cc1)N(Cc1ccccc1)Cc1ccccc1 | 1%
CCOc1cc2oc(C)c(-c3ccccc3Cl)c(=O)c2cc1CC | i
O=C(CC(c1ccccc1)c1cc(Br)ccc1O)NC1CCCCC1 (centres undefined) | 5%
O=C(NC(=S)Nc1ccc(Cl)cc1Cl)c1ccc(-c2ccccc2)cc1 | i
O=C(O)c1nc(N2CCOCC2)nc(N2CCOCC2)n1 | 8%
Cc1ccc(C)c(NC(=O)CNS(=O)(=O)c2ccccc2)c1 | 3%
COC(=O)NC1(C(F)(F)F)NC(=O)N(C2CCCC2)C1=O (centres undefined) | i
CC1CCc2c(sc(NC(=O)c3ccccc3)c2CN2CCCC2)C1 (centres undefined) | 2%
CCn1cc(CNC(=O)c2ccc(OC)c([N+](=O)[O-])c2)c(C)n1 | i
CCOc1ccc(S(=O)(=O)Nc2ccc(Cl)cn2)cc1 | i
Cc1cccc(C(=O)NC(C)c2nnc(SCC(=O)Nc3cc(C(F)(F)F)ccc3Cl)n2C)c1 (centres undefined) | i
CC1(C)NC(=O)N(CCOCCOc2c(Cl)cc(Cl)cc2Cl)C1=O | 4%
CCOc1ccccc1C(=O)Oc1c(S(=O)(=O)c2ccccc2)c(C)nn1-c1ccccc1 | 5%
CCOC(=O)C1=C(C)NC(C)=C(C(=O)OCC)C1c1cc(Br)c(O)c(OCC)c1 | i
CN(C)C(=O)Oc1ccc([N+](=O)[O-])cc1 | i
Cc1ccc(OCC(=O)Nc2ccccc2Br)c(C)c1 | 6%
CCOC(=O)c1c(-c2ccc(F)cc2)csc1NC(=O)C1CC=CCC1C(=O)O (centres undefined) | i
Cn1c(SCC(=O)Nc2cc(=O)n(C)c(=O)n2C)nnc1-c1cccs1 | i
CC(=O)Nc1ccc(OCC(=O)Nc2cc(Cl)cc(Cl)c2)cc1 | i
Cc1ccc(S(=O)(=O)N(CC(=O)N2CCc3ccccc3C2)c2ccccc2Cl)cc1 | i
CCOc1ccc(C)cc1S(=O)(=O)N1CCCC1 | i
COc1cccc(-c2ccc(C#N)c(SCC(=O)NCc3ccco3)n2)c1 | 1%
NS(=O)(=O)c1ccc(NC(=S)Nc2ccn(Cc3cccc4ccccc34)n2)cc1 | i
CC(C)c1nc(N2CCN(C(=O)c3ccccc3)CC2)c(C#N)c2c1COC(C)(C)C2 | ?
COc1ccc(N2CC(=O)NC2=O)cc1 | i
N#C/C(=C\c1cn(Cc2ccc(Cl)c(Cl)c2)c2ccccc12)c1nn(CCO)c(N)c1C#N | 8%
CC(C)c1ccc(C(=O)N2CCCCCC2)cc1 | 3%
COc1ccc(C2=NN(c3cccc(F)c3)C(c3ccc(Cl)cc3)C2)cc1 (centres undefined) | 4%
O=C(c1cn(-c2ccccc2)nc1-c1cccs1)N1CCCCC1 | i
COc1ccc(-c2csc(-c3cccnc3)n2)cc1C | 13µg/mL*
COC(=O)c1ccccc1NC(=O)CN(c1ccccc1)S(=O)(=O)c1ccccc1 | i
CC(=O)Nc1ccc(NC(=O)CN(Cc2ccc(Cl)cc2)S(=O)(=O)c2ccc(C)cc2)cc1 | i
Cc1ccc(S(=O)(=O)c2nc(S(=O)(=O)Cc3ccccc3)sc2N2CCOCC2)cc1 | 0%
C=C(C)COc1cc(C)cc2oc(=O)c(CC(=O)O)c(C)c12 | i
Cc1ccc(SCc2cc(=O)[nH]c(SCC(=O)Nc3cc(Cl)ccc3Cl)n2)cc1 | i
C=CCN1C(=O)c2ccccc2C1(O)Cc1ccccc1 (centres undefined) | i
CCN(CC)CC(=O)Nc1cccc(I)c1 | i
O=C(CSc1nc(N2CCCCC2)nc(N2CCCCC2)n1)Nc1nccs1 | i
Cc1ccc2nc(-c3ccc(C)c(N)c3)oc2c1 | i
Cc1ccc(S(=O)(=O)N(C)c2ccc(C(=O)Nc3cc(C(F)(F)F)ccc3Cl)cc2)cc1 | 6%

For convenience, 3 of the compounds above.
canonical_smiles | Mtb growth
CCOc1ccc(C)cc1S(=O)(=O)N1CCCC1 | i
COc1cccc(-c2ccc(C#N)c(SCC(=O)NCc3ccco3)n2)c1 | 1%
NS(=O)(=O)c1ccc(NC(=S)Nc2ccn(Cc3cccc4ccccc34)n2)cc1 | i

(listing goes on)
canonical_smiles | Mtb growth
CSc1nc(-c2ccccc2)nc(N2CCOCC2)c1C(C)=O | 1%
C#CCSc1nnc2n(-c3ccccc3C)c(=O)c3c(n12)-c1ccccc1CC31CCCCC1 | 1%
S=C(c1ccc(Cl)cc1)N1CCN(Cc2ccccc2)CC1 | i
CCC(=O)Nc1ccc(I)cc1F | 21%
COC(=O)CN1C(=S)N(Cc2ccccc2)C(=O)C1CC(=O)Nc1ccc(I)cc1 (centres undefined) | 1%
CN(C)S(=O)(=O)c1ccc(NC(=O)COc2ccc(Br)cc2)cc1 | i
Cc1cc(C)c(NC(=S)NC(NC(=O)c2ccc(Br)cc2)C(Cl)(Cl)Cl)c(C)c1 (centres undefined) | 3%
CC(=O)OC(C)CC#CCN1CCN(C)CC1 (centres undefined) | i
COc1ccc(Cl)cc1NC(=O)c1ccc(C(C)(C)C)cc1 | i
COc1ccc(OC)c(NC(=O)c2cc3c(n(-c4ccccc4)c2=O)CC(C)(C)CC3=O)c1 | i
CCOC(=O)N1CCN(C(=S)Nc2ccc3nc(-c4ccccn4)c(-c4ccccn4)nc3c2)CC1 | 1%
O=C(NC(=S)Nc1ccc(N2CCN(C(=O)c3ccccc3)CC2)cc1)c1cccs1 | 5%
O=C(NCc1ccccn1)c1ccccc1CCc1ccccc1 | i
Cc1cc(C)n(C(=O)CCNS(=O)(=O)c2ccc(Cl)cc2)n1 | i
CCc1ccc(NC(=S)Nc2cccc(OC)c2)cc1 | 42%
Cc1ccc(-c2nc3cc(NC(=O)C(C)C)ccc3o2)cc1C | i
CCC(=O)Nc1ccc2oc(-c3c(F)c(F)c(F)c(F)c3F)nc2c1 | 10µg/mL*
CCOc1ccc(C(=O)Nc2ccc([N+](=O)[O-])cc2)cc1OC | i
COC(=O)c1cccc(NC(=O)c2ccc(N(Cc3ccc(C)cc3)S(C)(=O)=O)cc2)c1C | i
O=C(CN1CCN(c2ccccc2F)CC1)Nc1ccc(Br)cc1 | i

Two entries from above, reformatted.
CCC(=O)Nc1ccc2oc(-c3c(F)c(F)c(F)c(F)c3F)nc2c1
  Mtb growth = 10µg/mL*

CCOc1ccc(C(=O)Nc2ccc([N+](=O)[O-])cc2)cc1OC
  Mtb growth = i

Remaining list, next part
canonical_smiles | Mtb growth
COc1ccc(Br)cc1C=NN1CCN(C2c3ccccc3-c3ccccc32)CC1 | i
CC(NC(=O)CSc1nnc2c3cc(Br)ccc3n(C)c2n1)c1ccccc1 (centres undefined) | 35%
CCCCOc1ccccc1NC(=O)COc1ccc(C)cc1C | i
CCCNC(=S)Nc1ccccc1C | i
Cc1ccc(SCC(=O)Nc2cccc(C(=O)NC(C)(C)C)c2)cc1 | 1%
CC1=C(C(=O)N2CCOCC2)C(c2ccccc2OC(C)C)C2=C(CCCC2=O)N1 (centres undefined) | i
COc1ccc(Cc2nnc(SCC(=O)Nc3ccc(I)cc3C)n2C)cc1 | i
CC(=O)Nc1ccccc1C(=O)C(=O)Nc1cccc(F)c1 | 1%
COCc1cc(C)nc(SCC(=O)Nc2ccc3c(c2)OCCO3)c1C#N | i
S=C(Nc1ccccc1)N1CCN(c2ccccc2)CC1 | 3%
CCOC(=O)C1=CN(C(C)C)C=C(C(=O)OCC)C1c1ccc(F)c(Br)c1 | 12%
O=C(c1coc2ccc(O)c(CN3CCCCC3)c12)C1CC1 | i
CCOc1ccc(C2=C(/C=C3\SC(=S)NC3=O)C(c3ccc(F)cc3)c3ccccc3O2)cc1 (centres undefined) | i
Cc1ccc(C(=O)Nc2ccc(Br)c(C)c2)cc1Cl | i
Cc1ccc(-c2c(C)n([O-])c3c([n+]2=O)CCC3)o1 | i
Cc1cccc(NC(N)=Nc2nc(C(F)(F)F)cc(C(F)(F)F)n2)c1 | i
COc1ccc(N2C(=O)CC(Cc3ccc(Br)cc3)C2=O)cc1 (centres undefined) | i
CC1=C(C(=O)OC(C)C)C(c2cc(Cl)ccc2OC(C)C)NC(=S)N1 (centres undefined) | i
COC(=O)Nc1scc(-c2ccccc2)c1C(=O)NCc1ccco1 | 3%
O=C(CC1(O)C(=O)Nc2ccc(I)cc21)c1cccs1 (centres undefined) | i
O=C(c1ccc(N2CCCC2)c([N+](=O)[O-])c1)N1CCCCCC1 | 7%
CCOc1ccc(NC(=O)Nc2cc(Cl)c(OC)cc2OC)cc1 | i
COC(=O)c1cc(NC(=O)C23CCC(C)(C(=O)C2)C3(C)C)cc(C(=O)OC)c1 (centres undefined) | i
NC(=O)c1ccc(NC(=O)CN(Cc2ccc(Cl)c(Cl)c2)S(=O)(=O)c2ccccc2)cc1 | i
COc1ccc(S(=O)(=O)Nc2c(F)cccc2F)cc1 | i
CCOC(=O)c1ccc(NC(=O)CN(c2cccc(OC)c2)S(=O)(=O)c2ccccc2)cc1 | i
CC(=O)Nc1ccccc1-c1n[nH]c(=S)[nH]c1=O | i
CCOC(=O)Oc1ccc2c(c1)C(C)=CC(C)(C)N2 | i
CCc1nnc(NC(=O)c2ccc3c(c2)C(=O)N(C(C)(C)C)C3=O)s1 | i
Cc1c(C(=O)OC(C)C)sc(NC(=O)CCc2ccccc2)c1C(N)=O | i
Cc1ccc(C)c(OCC(=O)Nc2ccc(S(=O)(=O)Nc3nccs3)cc2)c1C | i
COc1cccc(C(=O)Nc2nc(-c3ccccc3)c(C)s2)c1OC | 5%
Cc1cccc(NC(=O)CNS(=O)(=O)c2ccccc2)c1 | i
Cc1ccc(-c2csc(NC(=O)c3ccc(S(=O)(=O)N4CCCCCC4)cc3)n2)cc1C | i
CCOC(=O)c1c(-c2ccccc2)csc1NC(=O)CSc1nnc2ccc3ccccc3n12 | i
COc1ccc(OC2C(=O)N(c3cccc([N+](=O)[O-])c3)C2c2ccccc2OC)cc1 (centres undefined) | i
COC(=O)c1ccccc1SNc1ccccc1C | 4%
O=C(Cn1cc(/C=C/[N+](=O)[O-])c2ccccc21)N1CCOCC1 | i
Cc1ccc(S(=O)(=O)Nc2nc(C)cc(N3N=N3)n2)cc1 | i
COc1cc(-c2noc(C(C)(C)C)n2)cc(OC)c1OC | 14%
O=C(CC1CCCCC1)NCc1ccccc1Cl | 2%
CC(NC(=O)c1ccc(Cl)c(Cl)c1)c1n[nH]c(=S)n1C (centres undefined) | i
CCC(C)c1ccc(NC(=S)NC)cc1 (centres undefined) | i
COc1cc(Nc2ncnc3c2cnn3-c2cccc(C)c2)cc(OC)c1OC | i
CCCCOc1ccc(NC(=O)c2cc(F)c(F)cc2Cl)cc1 | 23%
Cc1cc(NC(=O)C2CCCO2)ccc1Br (centres undefined) | i
CCOc1cc(C2C(C(=O)OC)=CN(c3ccccc3)C=C2C(=O)OC)cc(Cl)c1O | i
c1ccc(CSc2nnc(Cc3c[nH]c4ccccc34)o2)cc1 | 6%
COc1ccc(-n2cnc3sc4c(c3c2=O)CCCC4)cc1 | 3%
O=C(c1ccc([N+](=O)[O-])cc1)N1CCN(C(=O)C(c2ccccc2)c2ccccc2)CC1 | i
COC(=O)C1=C(C)N(c2ccc(C)cc2)C(C)=C(C(=O)OC)C1c1cccc([N+](=O)[O-])c1 | 13%
CCOC(=O)C1(C(F)(F)F)N=C(N2CCOCC2)Oc2c1c(C)nn2-c1ccccc1 (centres undefined) | 0%
O=[N+]([O-])c1ccc(NC(=S)NCc2ccc(F)cc2)cc1 | 4.9µg/mL*
COc1cc(C)c(N(C(C)=O)c2ccccc2)c(C)c1 | i
S=c1nc2ccccc2c2[nH]c3ccccc3n12 | 43%
Nc1ncnc(Nc2ccccc2Cl)c1[N+](=O)[O-] | i
O=S(=O)(NC1c2cccc3cccc(c23)C1Sc1ncccn1)c1ccccc1 (centres undefined) | 3%
COc1ccc(Cl)cc1NC(=O)CN(c1ccccc1F)S(=O)(=O)c1ccc(C)cc1 | i
COc1ccc(S(=O)(=O)Nc2cccc(Cl)c2)cc1Cl | i
COc1cc(C2C(C(C)=O)=C(c3ccccc3)N=C3SCC(=O)N32)ccc1O (centres undefined) | i

Going on with the list:
canonical_smiles | Mtb growth
Cc1noc(C)c1Cc1c(C)noc1C | i
Cc1oc(CC(C)C)c(CN2CCCCC2)c1C(=O)O | i
N#Cc1ccc(N2CCOCC2)c([N+](=O)[O-])c1 | i
Cc1ccc2[nH]c(=O)c(CN3CCCCC3)c(-c3ccccc3)c2c1 | ?
Cc1ccnc(NC(=O)CN(C)S(=O)(=O)c2cc(Cl)ccc2Cl)c1 | 3%
Cn1cnnc1SCC(=O)Nc1ccc(F)c(Cl)c1 | i
COc1ccc(S(=O)(=O)N2CCN(C(=O)c3cccc4ccccc34)CC2)cc1 | i
CCOC(=O)c1c(NC(=S)NC(=O)c2ccc(Cl)cc2Cl)sc2c1CCCC2 | 11%
CCC(=O)OC1=C(C)C2C3C(=O)N(c4ccc(F)cc4)C(=O)C3C1(C)C1C(=O)N(c3ccc(F)cc3)C(=O)C21 (centres undefined) | i
CCOC(=O)Cc1nnc(Nc2ccc(C)cc2)c2ccccc12 | i
O=C(NCCc1ccccc1)C(=S)NCc1ccccc1 | 12%
O=C(CSc1nnc2ccccn12)c1ccc(-c2ccccc2)cc1 | i
COCCCn1c(CCC(=O)O)ccc1-c1ccc(F)cc1 | i
CC(=O)N1CCN(c2ccccc2NC(=O)c2cc(Br)ccc2Cl)CC1 | i

Source: PubChem (Southern Research Institute)
